Compound activity from PubChem BioAssay.
D2 PAM: positive allosteric modulators of human D2 dopamine receptor; DiscoveRx D2 beta-arrestin cells, luminescence, 90 min; 100% = 57 uM dopamine signal; AID 624464; potentiation, % (concentration not given with the values); hit rate 0.23% among 360,000; active = potentiation of 50% or more; inconclusive = 30% to 50%; inactive = 30% or less;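 also: compound concentration not given in the record; tested on top of an EC20 dose of dopamine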
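PathHunter D2 cells, attached overnight at 37 deg C, received compound in DMSO plus dopamine at EC20 (50 nM final) for 90 min at 37 deg C. Beta-arrestin recruitment was read as luminescence after 1 h with detection reagent at ambient temperature.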
TRPV1 PAM: potentiators of human vanilloid receptor 1 (TRPV1); hit rate 0.02% among 320,000; TRPV1-expressing cells, Fluo-8 calcium influx, capsaicin EC20 potentiation; host cell line not named in the record; control for the full effect not named in the record; potentiation, % at 8.33 µM; active means potentiation above 80%; inconclusive means 30% to 80%; inactive means below 30%; also: 0% is about no effect
Target sequence (Q8NER1 whole entry, looked up): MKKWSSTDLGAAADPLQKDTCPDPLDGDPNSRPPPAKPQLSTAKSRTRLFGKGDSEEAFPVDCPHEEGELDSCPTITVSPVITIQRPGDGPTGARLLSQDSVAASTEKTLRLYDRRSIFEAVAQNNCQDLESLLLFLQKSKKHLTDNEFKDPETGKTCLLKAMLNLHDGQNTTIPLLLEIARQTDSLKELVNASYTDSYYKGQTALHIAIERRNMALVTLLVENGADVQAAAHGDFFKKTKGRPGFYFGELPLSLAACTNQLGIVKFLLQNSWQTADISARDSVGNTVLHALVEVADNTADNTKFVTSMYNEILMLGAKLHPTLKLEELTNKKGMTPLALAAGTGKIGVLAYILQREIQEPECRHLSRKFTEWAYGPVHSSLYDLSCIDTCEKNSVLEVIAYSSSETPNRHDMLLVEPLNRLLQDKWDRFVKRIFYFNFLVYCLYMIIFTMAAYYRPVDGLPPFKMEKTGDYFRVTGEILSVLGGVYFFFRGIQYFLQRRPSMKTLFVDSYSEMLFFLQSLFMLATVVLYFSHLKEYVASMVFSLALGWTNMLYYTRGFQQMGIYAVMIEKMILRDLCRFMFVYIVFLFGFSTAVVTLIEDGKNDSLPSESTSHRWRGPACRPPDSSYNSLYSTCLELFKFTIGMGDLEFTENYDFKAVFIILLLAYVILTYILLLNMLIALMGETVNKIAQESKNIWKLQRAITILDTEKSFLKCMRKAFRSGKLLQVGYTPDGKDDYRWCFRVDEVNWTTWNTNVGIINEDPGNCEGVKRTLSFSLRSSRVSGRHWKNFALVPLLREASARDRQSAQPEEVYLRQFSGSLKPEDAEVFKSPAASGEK
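TRPV1-expressing cells were cultured overnight at 35.5C and loaded with Fluo-8 calcium dye for 40 to 90 min at room temperature. After a 10 s baseline, compound was added and calcium influx was read kinetically for 3 min (ex 480/em 520 nm).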
ClpP mod: qHTS Assay for Activators of ClpP; ATP-dependent Clp protease proteolytic subunit (Bacillus subtilis (strain 168)), P80244; purified B. subtilis ClpP, FRET peptide cleavage, 20 min; Potency, µM (series often up to 57.5 µM), inactives show at the top dose activity change, negative = active; hit rate 1.9% among 340,000; AID 651965, 2013; active = well fitted falling curve with a large enough effect; inconclusive = small, poorly fitted or top-dose-only effect; inactive = no such curve, though single readings can be large or run the other way; also: potency is read from the fitted curve at half-maximal effect; the source files actives as falling curves though it sought activators and does not explain the sign; nearly all actives have a fitted effect of over 65% in size; many hits overshoot -100%
Target sequence (P80244 whole entry, looked up): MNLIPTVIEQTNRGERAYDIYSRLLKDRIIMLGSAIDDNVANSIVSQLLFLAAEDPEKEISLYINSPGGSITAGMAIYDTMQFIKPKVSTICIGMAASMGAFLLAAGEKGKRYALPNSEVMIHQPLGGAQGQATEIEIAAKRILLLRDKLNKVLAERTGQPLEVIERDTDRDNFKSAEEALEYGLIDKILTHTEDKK
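ClpP 10 microg/mL final, pH 8 Tris/KCl buffer with BSA, glycerol, Tween-20; compound pinned in; FRET-FV substrate; RT 20 min; Ex320/Em430; ΔFRET vs ADEP 5.8 microM, DMSO, no enzyme.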
gsp antag: antagonizes gsp, the McCune-Albright syndrome mutation. gsp-mutant cells, cAMP HTRF, 30 min; control for the full effect not named in the record. hit rate 0.4% among 340,000. Potency, µM (highest dose often 76.9 µM), without a hit: at the top dose activity change, negative = inhibition, most hits filed as inhibitors; active = falling curve of any shape with a large fitted effect; inconclusive = falling curve, mostly with a smaller effect; inactive = flat or rising curve; cell line not stated here;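 also: intracellular cAMP measured with PDE inhibitor Ro 20-1724 present during compound exposure; potency is read from the fitted curve at half-maximal effect; % is scaled to controls: 0 for no effect and ±100 for the full control effect; nearly all actives have a fitted effect of over 65% in size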
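G418-selected cells were plated in DMEM/10% FBS for 16-24 h at 37C, then treated with compounds plus the PDE inhibitor […] (300 uM solution added) for 30 min at 37C. Intracellular cAMP was measured by HTRF after 30 min lysis at room temperature.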
Sfp inh: inhibitors of Bacillus subtilis Sfp phosphopantetheinyl transferase | Biochemical Sfp PPTase activity, qHTS | hit rate 3.5% among 310,000 | Q9F4F7 | AID 1490 | Potency, µM, for the others: max response, negative = inhibition, most hits filed as inhibitors; active = well fitted inhibition curve with a large enough effect; inconclusive = small, poorly fitted or top-dose-only effect, or another doubt; inactive = no such curve, though single readings can be large or run the other way;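 also: the enzyme is Sfp with the accession as filed and its product quenches rhodamine fluorescence; potency is read from the fitted curve at half-maximal effect; 0% = enzyme reaction without inhibitor and -100% = no enzyme wells; top concentration of the series not given in the record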
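Fluorescence-quenching assay: 15 nM Sfp-PPTase preincubated 15 min at room temperature with compound, then 5 uM rhodamine-CoA and 12.5 uM BHQ-2-labelled YbbR peptide added. Fluorescence (ex 525/em 598 nm) read at start and after 30 min; difference gives rate.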
gsp ag: activates gsp, the McCune-Albright syndrome mutation; Potency, µM (doses to about 76.9 µM), for the others: at the highest dose activation (cAMP increase), usual class: activators; AID 624287; hit rate 0.13% among 340,000; gsp mutant cells, cAMP HTRF, 30 min; control for the full effect not named in the record; active = well fitted activation curve with a large enough effect; inconclusive = small, poorly fitted or top-dose-only effect, or another doubt; inactive = no such curve, though single readings can be large or run the other way; cell line not stated here;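 also: phosphodiesterase inhibitor Ro 20-1724 added with compounds to block cAMP breakdown; potency is read from the fitted curve at half-maximal effect; nearly all actives have a fitted effect of over 60% in size; about a fifth of the inactives were tested at one dose only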
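Cells stably selected in G418 were plated at 2000/well, grown 16-24 hr, then given compounds in DMSO with the PDE inhibitor […] (300 uM solution added) for 30 min at 37C; cAMP was read by HTRF.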
Menin-MLL FL inh: displaces fluorescein MLL peptide from human menin | Fluorescence polarization, fluorescein-MLL peptide displacement from menin | 290,000 tested, under 10 active | FP activity change, % at 61.4 µM | AID 1766; inconclusive = falling polarisation curve, or a change in total fluorescence; inactive = total fluorescence flat and polarisation flat or rising; no compound was filed as active; the % refers to the polarisation; negative = inhibition;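 also: % of control where 0% means no effect; inhibitors lower the polarisation; unlabelled MLL peptide was the positive control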
Active calls of the source: *; ? = inconclusive; nt = no result given; [ ] = another dose, or the depositor's remark.

Start of the data: the first 2 records, to show the layout:
SMILES	D2 PAM	TRPV1 PAM	ClpP mod	gsp antag	Sfp inh	gsp ag	Menin-MLL FL inh
Cc1[nH]nc(SCC(=O)N2CCOCC2)c1[N+](=O)[O-]	-9	?	nt	-3%	16%	-36%[inhibitor][15.4 µM]	2.3
CN(C)c1ccc(NC(=O)C2CCCN(S(=O)(=O)c3ccccc3)C2)cc1 (stereo unspecified)	-1	-15	1.3%	5%	-2%	-1%[15.4 µM]	-5.1

Main list, from the start:
SMILES	D2 PAM	TRPV1 PAM	ClpP mod	gsp antag	Sfp inh	gsp ag	Menin-MLL FL inh
Cc1[nH]nc(SCC(=O)N2CCOCC2)c1[N+](=O)[O-]	-9	?	nt	-3%	16%	-36%[inhibitor][15.4 µM]	2.3
CN(C)c1ccc(NC(=O)C2CCCN(S(=O)(=O)c3ccccc3)C2)cc1 (stereo unspecified)	-1	-15	1.3%	5%	-2%	-1%[15.4 µM]	-5.1
Cn1ncc2c(Nc3ccccc3Cl)nc(Cl)nc21	-1	9	nt	27%	15%	7%[15.4 µM]	-3.3
CCNC(=O)NC(=O)C(C)OC(=O)CNS(=O)(=O)c1c(Cl)cc(Br)cc1Cl (stereo unspecified)	-3	-3	2.8%	-2%	9%	-33%[inhibitor]	0.0
Nc1ccccc1Oc1ncc(C(F)(F)F)cc1Cl	-14	4	-0.2%	-3%	23%	3%	3.2
Nc1nc2ccccc2n1CCOc1ccc(Br)cc1	-12	-1	-0.2%	12%	-3%	3%	-7.8
CCCN(C1CCS(=O)(=O)C1)S(=O)(=O)c1ccc(F)cc1 (stereo unspecified)	-7	-24	nt	2%	nt	21%[15.4 µM]	nt
O=C(CCCC(=O)OCC(Cl)=C(Cl)Cl)Nc1ccccc1	-2	?	-2.8%	1%	10%	-22%[15.4 µM]	8.8
CSc1nnc(CNS(=O)(=O)c2ccc(Br)cc2)n1C	-6	8	1.3%	11%	12%	-12%	nt
Cc1c(C)c2c(OCC(=O)N3CCC(O)CC3)cc3c(c2oc1=O)CCC(C)(C)O3	-8	-37	4.7%	-15%	8%	nt	1.9
O=C(O)CCc1ccc(-c2cccs2)n1CCC(=O)O	10	15	-12%	1%	7.9µM*	22%	7.1
CCCN1C(=O)/C(=C/c2c(N3CCNC(=O)C3CC(=O)OC)nc3c(C)cccn3c2=O)SC1=S (stereo unspecified)	nt	-3	nt	nt	-22%	nt	?
CCCCCN(C(=O)CCC(=O)OCc1ccccc1Cl)c1c(N)n(CCCC)c(=O)[nH]c1=O	-26	5	0.8%	-12%	6%	-16%	nt
O=C(Cc1noc2ccccc12)Nc1ccccn1	-4	28	-7.1%	13%	-2%	8%[15.4 µM]	1.0
COc1ccc(OCc2ccc(C(=O)N3CCOCC3)cc2)cc1	7	-24	-0.1%	-4%	2%	11%	6.2
O=c1[nH]c(=O)n(C2OC(CO)C(O)C2O)cc1F (stereo unspecified)	5	nt	0.9%	10%	nt	4%	nt
NC(=O)CN1CCN(c2ccccc2F)CC1	-21	2	-1.5%	0%	13%	-18%	0.1
COc1cc(C=NNC(=O)c2ccccc2-n2cccc2)ccc1O	-5	nt	20µM*	7%	nt	-6%[15.4 µM]	nt
CNC(=O)COC(=O)/C=C/c1cccs1	-4	-3	nt	-30%	28%	1%[15.4 µM]	1.4
Cc1ccc(CNC(=O)c2ccc3c(=O)n(CCCN4CCCC4=O)c(=S)[nH]c3c2)cc1	-10	-2	0.0%	2%	3%	?	1.7
CC(Sc1ccccc1)C(=O)NN=C1CCCCCC1 (stereo unspecified)	-7	-2	nt	3%	10%	-16%	-0.2
Cc1cccc(N2C(=O)SC(N(CC(=O)O)c3cccc(C)c3)C2=O)c1 (stereo unspecified)	-6	nt	1.1%	0%	?	?	4.1
Cc1cc(C)n(CCN(C)C(=O)c2cc(COc3c(F)cccc3F)on2)n1	0	6	nt	-15%	11%	0%[15.4 µM]	-0.2
Cc1c(Cl)cccc1NC(=S)N1CCCN(Cc2ccc(F)cc2)C1	-13	6	nt	-9%	19%	8%	-0.1
Cc1cccc(NC(=S)NCc2ccccc2Cl)c1C	-5	-15	0.5%	-12%	11%	20%	2.2
CCCCNC(=O)Nc1ccc(C2SCCS2)cc1	-10	-12	nt	1%	14%	-4%[15.4 µM]	0.1
COc1ccc2o/c(=N/NC(=O)c3cccs3)c(C(N)=O)cc2c1	2	0	nt	?	13%	-28%	?
NC(=O)C[C@H](N)c1cn([C@@H](CC(N)=O)C(=O)N2CCNCC2)nn1	-10	-19	0.9%	-1%	nt	nt	nt
CN(C)CCNc1oc(COc2ccc(-c3ccccc3)cc2)nc1C#N	-20	-7	-0.3%	5%	-27%	-18%	-0.6
O=C(CCNC(=O)c1ccccc1Cl)Nc1nc2ccc(F)cc2s1	-3	1	1.7%	-10%	nt	8%	nt
O=C(O)C1C2CCC(O2)C1C(=O)Nc1ccc(O)cc1 (stereo unspecified)	-6	-4	1.5%	13%	?	-2%[15.4 µM]	nt
CCOC(=O)c1cncc(C#CCOC(=O)Nc2ccc(OC(F)(F)F)cc2)c1	-8	-18	2.9%	2%	-5%	-4%	2.5
COc1ccc(C(=O)Nc2cc(C)on2)c(OC)c1	-2	1	-2.9%	4%	16%	5%	1.7
O=C(NCCO)/C(=C/c1ccco1)NC(=O)c1ccco1	-4	nt	?	8%	nt	-6%[15.4 µM]	nt
CC(=O)N1CCc2cc(S(=O)(=O)NCCCN3CCC(C)CC3)ccc21	-35	12	0.5%	9%	9%	21%	nt
CCOc1ccc(N2C(=O)C3CCCN3C2=O)cc1 (stereo unspecified)	-1	0	-0.2%	8%	5%	7%	3.8
CC(C)OC(=O)/C(C#N)=C/c1c[nH]c2ccccc12	13	1	?	1%	7%	?	-1.2
CCN(CC)C(=O)c1cccc(NC(=O)CC23CC4CC(CC(C4)C2)C3)c1	-3	?	nt	?	3%	25%[15.4 µM]	-2.7
O=C(C[C@@H]1C/C=C/CC[C@H](Cc2ccc(F)cc2)C(=O)O[C@H](c2ccccc2)CNC1=O)NCCO	-12	nt	-1.7%	-3%	nt	?	nt
O=C(CCc1ccc(S(=O)(=O)N2CCOCC2)cc1)Nc1ccccc1F	1	nt	0.8%	2%	nt	-25%	nt
Oc1ccccc1/C=N/NC(=S)NC1CC2CC1C1C=CCC21 (stereo unspecified)	-3	-9	1.1%	-9%	28%	0%[15.4 µM]	-0.5
O=C1CCCCC1Nc1ccc([N+](=O)[O-])cc1 (stereo unspecified)	-13	nt	-7.2%	5%	nt	-4%	nt
O=C(NCCC(=O)N1CCCCC1)c1ccccc1Cl	-15	17	-0.9%	12%	10%	-13%	nt
CCC(C)NC(=O)C1CCCN(S(=O)(=O)c2ccc(-n3cnnn3)cc2)C1 (stereo unspecified)	-4	4	-0.4%	-4%	11%	-17%	0.0
CCc1nnc(NC(=O)CCC(=O)NCc2ccc(C)cc2)s1	-5	20	-2.7%	4%	12%	-31%	nt
CCOc1ccc(C(=O)Nc2cccc([N+](=O)[O-])c2)cc1Br	-13	1	nt	7%	-3%	18%[15.4 µM]	3.1
CCOc1ccc(CNn2nnnc2N)cc1	-5	-3	-0.2%	?	15%	-14%	3.2
CN(C)c1ccc(CNS(=O)(=O)c2ccc3c(c2)C(C)(C)C(=O)N3C)cc1	-1	-5	0.0%	-4%	11%	-20%	-2.9
CCn1c(Cn2nnc(-c3ccccc3)n2)nnc1SCC(=O)Nc1ccc(C(C)=O)cc1	-19	-10	-1.7%	3%	-3%	4%	1.1
Cc1ccc2c(c1)cc(CN(Cc1cccs1)C(=O)c1ccco1)c1nnnn12	-13	-12	-5.1%	-19%	2%	-14%	2.1
O=C(CSCc1ccc(Cl)cc1)N/N=C/c1ccco1	-9	2	nt	1%	26%	5%	-1.0
O=C(CCc1nc2ccccc2c(=O)[nH]1)NNC(=O)COc1cccc(F)c1	-1	4	-1.4%	-3%	nt	-50%[inhibitor]	nt
O=C1NC(=S)S/C1=C\c1cccc([N+](=O)[O-])c1	-8	nt	nt	?	nt	3%	nt
O=C(O)C(Cc1ccccc1)n1c(=S)[nH]c2ccccc2c1=O (stereo unspecified)	-4	0	0.7%	-8%	3%	-9%[15.4 µM]	3.3
CC1=CCC(COC(=O)Nc2ccccc2)CC1 (stereo unspecified)	-1	-19	-0.8%	7%	2%	-28%	4.6
C/C(=N/NC(=O)c1ccc(Br)o1)c1ccncc1	-11	-13	0.3%	18%	-7%	0%[15.4 µM]	-0.5
O=C(c1ccc(Br)o1)N1CCN(CCc2ccncc2)CC1	-7	8	-1.5%	9%	14%	29%	-15
O=C1CCCN1c1ccc(S(=O)(=O)Oc2ccc(Cl)cc2)cc1[N+](=O)[O-]	14	nt	-0.9%	-18%	7%	-5%	2.1
CC(NC(=O)Cc1ccccc1[N+](=O)[O-])c1ccccc1 (stereo unspecified)	nt	-23	nt	nt	1%	nt	2.6
CN1/C(=C\C(=O)c2cccnc2)C(C)(C)c2ccccc21	-8	-17	-2.0%	-6%	1%	-28%	1.3
Next part
SMILES	D2 PAM	TRPV1 PAM	ClpP mod	gsp antag	Sfp inh	gsp ag	Menin-MLL FL inh
CCCn1nc(C(=O)Nc2nnc(CC)s2)c2ccccc2c1=O	0	-14	21%	-57%	-15%	24%[15.4 µM]	-0.3
Cc1ccccc1C(=O)N1CCc2c([nH]c3ccccc23)C1C(F)(F)F (stereo unspecified)	7	-2	-0.6%	-11%	5%	7%[15.4 µM]	-0.1
Cc1cc(N2CCN(C(=O)c3ccco3)CC2)c2ccccc2n1	-8	-4	-3.7%	6%	22%	31%	2.9
CCN(Cc1nc(-c2ccccc2)no1)C(=O)c1ccco1	-5	12	nt	8%	12%	4%	nt
CC(C)OCCCN1CN(S(=O)(=O)c2ccccc2)c2nc3ccccc3nc21	-5	-17	?	-19%	5%	7%	-2.3
CC(=O)c1sc2nc(CSc3nnnn3-c3ccccc3)[nH]c(=O)c2c1C	-4	6	1.4%	-18%	?	1%[15.4 µM]	?
Cc1cc(C)c(NC(=O)CSc2nnc(-c3ccncc3)n2Cc2ccco2)c(C)c1	-1	25	1.1%	-7%	?	23%	2.3
CC(C)c1ccc(NC(=O)C2CSC3(C)CCC(=O)N23)cc1 (stereo unspecified)	-5	2	-0.9%	0%	10%	-28%	nt
